Screening data from PubChem.
gsp antag – gsp mutant antagonism; Potency, µM (titrated, usually from 76.9 µM), for the others: at the top dose activity change, negative = inhibition, most hits filed as inhibitors; 340,000 compounds, 0.4% hits; gsp-mutant cells, cAMP HTRF, 30 min; control for the full effect not named in the record; active = falling curve of any shape with a large fitted effect; inconclusive = falling curve, mostly with a smaller effect; inactive = flat or rising curve; cell line not stated here;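 also: intracellular cAMP measured with PDE inhibitor Ro 20-1724 present during compound exposure; potency is read from the fitted curve at half-maximal effect; % is scaled to controls: 0 for no effect and ±100 for the full control effect; nearly all actives have a fitted effect of over 65% in size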
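Cells in G418 medium, seeded 16-24 h, 37C; buffer exchange to DPBS + 1 mM CaCl2, 0.5 mM MgCl2, 0.05% BSA; cpds in DMSO + […] (300 uM stock), 30 min 37C; HTRF cAMP detection.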
gsp agonist – activates gsp, the McCune-Albright syndrome mutation; gsp mutant cells, cAMP HTRF, 30 min; control for the full effect not named in the record; Potency, µM (series often up to 76.9 µM), for inactives: top-dose activation (cAMP increase), most hits filed as activators; 340,000 compounds, 0.13% hits; AID 624287; active = well fitted activation curve with a large enough effect; inconclusive = small, poorly fitted or top-dose-only effect, or another doubt; inactive = no such curve, though single readings can be large or run the other way; cell line not stated here;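 also: phosphodiesterase inhibitor Ro 20-1724 added with compounds to block cAMP breakdown; potency is read from the fitted curve at half-maximal effect; nearly all actives have a fitted effect of over 60% in size; about a fifth of the inactives were tested at one dose only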
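Cells in DMEM/10% FBS with G418 were pretreated with compounds in DMSO plus […] (300 uM stock) for 30 min at 37C. cAMP was measured by HTRF (cAMP-d2 plus anti-cAMP antibody-K) after 30 min at room temperature.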
PINK1 modulator – changes PINK1 expression. PINK1 immunofluorescence, high-content cytometry, 24 h. Potency, µM (titrated, usually from 76.6 µM), for inactives: top-dose activation (PINK1 increase), usual class: activators. 410,000 compounds, 0.2% hits. AID 624263; active = well fitted activation curve with a large enough effect; inconclusive = small, poorly fitted or top-dose-only effect; inactive = flat fitted curve, though single readings scatter; cell line not stated here;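 also: potency is read from the fitted curve at half-maximal effect; % of control where 0% means no effect; nearly all actives have a fitted effect of over 65% in size; a mitochondrial uncoupler was the plate control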
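Readout is PINK1 immunofluorescence, quantified alongside mitochondrial, cell and nuclear markers by laser-scanning microplate cytometry. Cells from a stable line were exposed to compound titrations (5 concentrations) for 24 hours, with CCCP controls.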
ClpP mod – qHTS Assay for Activators of ClpP. 340,000 compounds, 1.9% hits. purified B. subtilis ClpP, FRET peptide cleavage, 20 min. Potency, µM (top dose mostly 57.5 µM), for inactives: at the highest dose activity change, negative = active. ATP-dependent Clp protease proteolytic subunit (Bacillus subtilis (strain 168)), P80244; active = well fitted falling curve with a large enough effect; inconclusive = small, poorly fitted or top-dose-only effect; inactive = no such curve, though single readings can be large or run the other way; also: potency is read from the fitted curve at half-maximal effect; the source files actives as falling curves though it sought activators and does not explain the sign; nearly all actives have a fitted effect of over 65% in size; many hits overshoot -100%
Target sequence (P80244 whole entry, looked up): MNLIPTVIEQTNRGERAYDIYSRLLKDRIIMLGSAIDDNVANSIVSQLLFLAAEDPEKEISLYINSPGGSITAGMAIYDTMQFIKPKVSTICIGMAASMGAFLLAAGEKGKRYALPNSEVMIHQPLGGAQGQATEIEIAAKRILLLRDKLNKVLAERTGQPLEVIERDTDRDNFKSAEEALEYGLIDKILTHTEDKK
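ClpP 10 microg/mL final, pH 8 Tris/KCl buffer with BSA, glycerol, Tween-20; compound pinned in; FRET-FV substrate; RT 20 min; Ex320/Em430; ΔFRET vs ADEP 5.8 microM, DMSO, no enzyme.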
Menin MLL FP FL – displaces fluorescein MLL peptide from human menin; Fluorescence polarization, fluorescein-MLL peptide displacement from menin; FP activity change, % at 61.4 µM; 290,000 tested, under 10 active; inconclusive = falling polarisation curve, or a change in total fluorescence; inactive = total fluorescence flat and polarisation flat or rising; no compound was filed as active; the % refers to the polarisation; negative = inhibition;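 also: % of control where 0% means no effect; inhibitors lower the polarisation; unlabelled MLL peptide was the positive control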
Sfp PPTase inh – blocks B. subtilis Sfp PPTase activity; Q9F4F7; Biochemical Sfp PPTase activity, qHTS; Potency, µM, for the others: max response, negative = inhibition, usual class: inhibitors; 310,000 compounds, 3.5% hits; active = well fitted inhibition curve with a large enough effect; inconclusive = small, poorly fitted or top-dose-only effect, or another doubt; inactive = no such curve, though single readings can be large or run the other way;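 also: the enzyme is Sfp with the accession as filed and its product quenches rhodamine fluorescence; potency is read from the fitted curve at half-maximal effect; 0% = enzyme reaction without inhibitor and -100% = no enzyme wells; top concentration of the series not given in the record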
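Reaction rates are the 30-min fluorescence difference (ex 525, em 598 nm) in wells containing 15 nM Sfp, 5 uM rhodamine-CoA and 12.5 uM BHQ-2-YbbR at pH 7.6 with 10 mM MgCl2.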
D2 ag – agonists of human D2 dopamine receptor (beta-arrestin). DiscoveRx PathHunter D2 beta-arrestin, luminescence, 90 min; 100% = 57 uM dopamine signal. activation, % (concentration not given with the values). 360,000 compounds, 0.084% hits. AID 624465; in the data active = activation above about 40%; inconclusive = about 15% to 40%; inactive = below about 15%; also: the text of the record calls up to 30% inactive
Target sequence (P14416 whole entry, looked up): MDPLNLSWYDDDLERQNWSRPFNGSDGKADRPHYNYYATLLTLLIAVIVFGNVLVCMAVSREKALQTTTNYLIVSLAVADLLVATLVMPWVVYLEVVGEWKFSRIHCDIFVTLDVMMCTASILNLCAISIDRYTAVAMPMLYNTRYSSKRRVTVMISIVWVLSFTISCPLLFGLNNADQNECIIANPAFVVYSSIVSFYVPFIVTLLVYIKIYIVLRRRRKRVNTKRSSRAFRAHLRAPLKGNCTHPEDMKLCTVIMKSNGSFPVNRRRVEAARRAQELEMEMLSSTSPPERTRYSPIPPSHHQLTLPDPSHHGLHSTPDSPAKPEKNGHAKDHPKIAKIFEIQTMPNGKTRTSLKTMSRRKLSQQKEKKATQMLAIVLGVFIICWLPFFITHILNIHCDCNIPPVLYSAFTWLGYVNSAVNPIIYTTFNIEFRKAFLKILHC
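Agonist mode: compounds alone added to overnight-plated D2 PathHunter cells for 90 min at 37 C, with 57 uM final dopamine (EC100) defining full response. Beta-arrestin recruitment detected by chemiluminescent reagent, read after 1 h at ambient temperature.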
* = called active by the depositor; ? = inconclusive; . = no result given; & = joins results of further samples; [ ] = another dose, or the depositor's remark.

Each structure is followed by: gsp antag	gsp agonist	PINK1 modulator	ClpP mod	Menin MLL FP FL	Sfp PPTase inh	D2 ag
1	CC(C)(C)c1ccc(OCCNC(=S)NC(=O)c2cccnc2)cc1
    21%	13%	-0.1%	-4.5%	2.4	-1%	4.2
2	COc1ccc(Cn2nnnc2CN2CCc3ccccc32)cc1
    -5%	10%	.	-4.3%	0.3	6%	-3.1
3	CCCCNC(=O)CN1C(=O)COc2ccc(S(=O)(=O)N3CCCCCC3)cc21
    6%	11%	0.6%&3.3%	0.2%&-1.7%	.	7%	-3.6
4	Cc1cccc(NS(=O)(=O)c2ccc(C(=O)NCC(c3ccccc3)N(C)C)cc2)c1C (centres undefined)
    -1%	17%	0.1%	-0.5%	.	4%	-7.0
5	COc1ccc(C2NC(=O)c3n[nH]c(C)c32)c(OC)c1 (centres undefined)
    4%	23%	0.9%	0.0%	2.2	14%	2.4
6	CCOCC(=O)NC1CCc2cc(OC(=O)COCC)c(OC)c(OC)c2-c2ccc(SC)c(=O)cc21 (centres undefined)
    3%	-8%	5.0%	1.0%	.	.	0.6
7	COc1cccc(C(=O)N(Cc2ccco2)c2c(N)n(Cc3ccccc3)c(=O)[nH]c2=O)c1
    8%	-17%	0.4%	-7.5%	.	.	-2.0
8	O=C(NC1CCS(=O)(=O)C1)C1CCCN(S(=O)(=O)c2ccc(Cl)cc2)C1 (centres undefined)
    -5%	?	3.0%	-0.2%	9.3	6%	-0.9
9	CCOC(=O)/C=C1/SCC(=O)N1CC(=O)Nc1ccccc1OC(F)F
    8%	34%	1.6%	.	.	.	-0.2
10	CC(C)(C)C(=O)NC(=S)Nc1ccccc1C(=O)Nc1ccccc1
    3%	-11%	.	4.9%	1.8	-2%	-0.3

Each structure is followed by: gsp antag	gsp agonist	PINK1 modulator	ClpP mod	Menin MLL FP FL	Sfp PPTase inh	D2 ag
11	COc1ccc(-c2sc3cc4c(cc3c2C#CCO)OCO4)cc1
    -12%	.	0.1%	3.2%	.	.	-4.4
12	CC1CCC2(CC1)NC(=O)N(CC(=O)c1cccn1C)C2=O (centres undefined)
    -8%	-20%	-0.9%	0.3%	1.8	11%	-2.7
13	Cc1cccc(C)c1N1CCN(CCn2c(=S)[nH]c3ccccc3c2=O)CC1
    -21%	-1%	7.5%	-0.7%	-1.0	7%	-3.7
14	CC12CCC(C(=O)Nc3nccs3)(OC1=O)C2(C)C (centres undefined)
    3%	1%	.	1.5%	2.3	13%	-1.9
15	CCCc1c2ccccc2nc2ccccc12
    -7%	1%	3.4%	7.1µM*	-1.3	-11%	-3.6
16	CN(Cc1ccsc1)C(=O)Cn1cc(Br)ccc1=O
    5%	27%	1.5%	.	-9.5	9%	-3.3
17	COc1cccc(C(=O)C2CCCN(Cc3cn(C)nc3-c3ccccc3)C2)c1 (centres undefined)
    0%	-1%[15.4 µM]	-1.5%	.	-9.4	13%	-4.3
18	Cc1cccc(-c2noc(CCC(=O)NCCc3ccccc3)n2)c1
    -6%	-1%	6.0%	.	-0.5	9%	-1.5
19	Cc1noc(C)c1C(=O)N1CCC1(C)C(=O)NS(=O)(=O)c1cccc(F)c1 (centres undefined)
    .	.	2.6%	-3.8%	.	.	-4.1
20	CS(=O)(=O)N(CC(=O)Nc1ccc2c(c1)OCO2)c1ccc(Cl)cc1
    -1%	1%	0.8%	-0.3%	6.0	?	-1.5

Each structure is followed by: gsp antag	gsp agonist	PINK1 modulator	ClpP mod	Menin MLL FP FL	Sfp PPTase inh	D2 ag
21	Cc1sc2ncnc(N3CCN(c4ncccn4)CC3)c2c1C
    ?	40%	-1.2%	-4.4%	-1.6	8%	-4.7
22	CC(C)C(NS(=O)(=O)c1ccc2c(c1)C(C)(C)C(=O)N2C)C(=O)NCc1ccccc1Cl (centres undefined)
    0%	-1%	1.9%	0.1%	-3.9	15%	-5.4
23	Cc1cc(C)nc(CCNC(=O)CC2C(=O)NCCN2Cc2ccc(F)cc2Cl)n1 (centres undefined)
    4%	1%	-1.4%	-0.5%	-16	-7%	-5.2
24	CC1=NCCN1S(=O)(=O)c1cccc([N+](=O)[O-])c1
    6%	-30%[inhibitor]	0.0%	.	-0.4	20%	5.1
25	O=C(Nc1ccc2c(c1)OCCO2)c1cnc2n(c1=O)CCS2
    0%	?	0.2%	1.3%	-0.7	5%	-6.4
26	Cc1ccccc1CN(C)C(=O)[C@H](Cc1ccccc1)NC(=O)c1ccco1
    -13%	0%	0.2%	1.6%	.	.	8.0
27	Cc1c(CC(=O)NCC(=O)NCC(=O)O)c(=O)oc2cc3oc4c(c3cc12)CCCC4
    0%	19%	3.6%	.	0.5	-20%	0.9
28	Clc1cccc(-c2ccc(CNCc3ccccn3)o2)c1
    -2%	-23%	2.9%	6.3%	-9.0	79µM*	1.7
29	COc1cccc(NC(=O)c2cc3c(=O)n4ccccc4nc3n(CC(C)C)c2=N)c1
    3%	-2%	1.6%	-5.5%	2.9	23%	-3.3
30	CCN(CC(=O)NCc1ccc(Cl)cc1)C(=O)CCC(=O)c1ccc(F)cc1
    3%	-7%	1.9%	-3.8%	.	.	-0.8

Each structure is followed by: gsp antag	gsp agonist	PINK1 modulator	ClpP mod	Menin MLL FP FL	Sfp PPTase inh	D2 ag
31	COc1ccc(NS(=O)(=O)c2ccc3c(c2)N(C(C)=O)CC(C)S3)c(OC)c1 (centres undefined)
    -12%	?	1.4%	-3.1%	.	-2%	7.0
32	CCOC(=O)C1(Cc2ccccc2)CCCN(CCCn2cccn2)C1 (centres undefined)
    -5%	5%[15.4 µM]	2.1%	0.7%	2.1	14%	-4.7
33	COc1ccc(CCN2C(=O)CC(N3CCC(C(N)=O)CC3)C2=O)cc1OC (centres undefined)
    15%	-5%[15.4 µM]	-1.3%	.	7.2	50µM*	-1.0
34	CN(CCO)C(=O)C(c1ccccc1)c1ccccc1
    1%	15%[15.4 µM]	-0.9%	-1.7%	1.8	14%	-2.2
35	CC1(C)CC(=O)C2=C(C1)N1CCCCC1CC2=O (centres undefined)
    9%	-22%	-1.4%	-0.4%	?	-9%	-0.7
36	C[C@@H](C(=O)Nc1nccs1)N1C(=O)C2CC=CCC2C1=O (some centres undefined)
    18%	-18%	0.2%	.	.	.	-0.7
37	Cc1ccc(OCC(=O)NNC(=S)NCc2ccccc2)cc1
    6%	17%[15.4 µM]	4.6%	.	-1.0	23%	-0.9
38	Cc1ccc(C)c(N(CC(=O)Nc2ccccc2C(=O)NCc2ccco2)S(=O)(=O)c2ccccc2)c1
    -10%	-52%[inhibitor]	0.8%	35µM*	0.4	27%	0.0
39	O=C(O)C1CCCCN1S(=O)(=O)c1ccc(Cl)s1 (centres undefined)
    -9%	-1%	3.1%	1.6%	1.6	22%	-6.2
40	COC(=O)c1nnn(CC(=O)Nc2ccc(C)c(F)c2)c1C(=O)OC
    0%	-18%	0.4%[38.3 µM]	-0.7%	1.8	-10%	-3.2

Each structure is followed by: gsp antag	gsp agonist	PINK1 modulator	ClpP mod	Menin MLL FP FL	Sfp PPTase inh	D2 ag
41	Cc1ccc(C(=O)CSc2nnc(-c3ccco3)n2Cc2ccccc2)cc1
    ?	-18%	-2.0%	-1.2%	5.7	-14%	-0.6
42	Cc1ccc(N(C)S(=O)(=O)c2cccc(C(=O)N3CCN(Cc4ccccc4)CC3)c2)cc1
    -27%	-2%	1.0%	-0.7%	.	.	0.5
43	Cc1cc(=O)oc2cc(OCC(=O)Nc3ccccc3C(N)=O)c(Cl)cc12
    -3%	?	7.8%	4.0%	-1.6	7%	2.8
44	CN(C)S(=O)(=O)c1cc(NC(=O)CNCc2ccccc2)ccc1Cl
    2%	25%	2.7%	.	-0.1	-29%	-1.5
45	COc1ccc([C@H]2CC(=O)C=C(c3ccc(OC)nc3)C2)cc1
    -10%	-57%[inhibitor]	0.3%	-1.7%	.	.	-7.2
46	O=C1c2ccccc2C(=O)N1CCN1CCCCC1
    1%	30%	-4.3%	1.1%	1.4	9%	-3.1
47	CCc1ccc(OCC(=O)N/N=C(\C)c2ccc(OC(F)F)cc2)cc1
    -25%	-1%[15.4 µM]	2.2%	.	3.3	5%	-2.4
48	CN(C)Cc1csc(NC(=O)Nc2ccccc2-c2ccccc2)n1
    .	.	4.0%	-28%	.	.	-4.1
49	CC(=O)c1ccc(S(=O)(=O)N2CCN(c3nn(C)c(=O)n(C)c3=O)CC2)cc1
    3%	1%	1.8%	?	.	.	-4.4
50	CCNC(=S)NS(=O)(=O)c1ccccc1
    -3%	-28%	-1.7%	0.5%	1.0	79µM*	-4.9

Each structure is followed by: gsp antag	gsp agonist	PINK1 modulator	ClpP mod	Menin MLL FP FL	Sfp PPTase inh	D2 ag
51	Cc1cc(=O)cc(C)[nH]1
    -3%	-8%	3.4%[38.3 µM]	0.0%	0.2	15%	0.3
52	CCc1nnc(NC(=O)CSc2nc3cccnc3n2Cc2ccccc2)s1
    6%	-19%	-0.1%	-4.6%	1.4	-6%	1.7
53	CN(Cc1ccccc1)C(=O)c1ccc2nc([C@@H]3O[C@H](CO)[C@H](O)[C@H](O)[C@H]3O)[nH]c2c1
    .	.	0.4%	-2.2%	.	.	-8.1
54	O=C(c1ccc(S(=O)(=O)NCc2ccco2)cc1)N1CCCC(C(F)(F)F)C1 (centres undefined)
    3%	-49%[inhibitor]	-0.4%	-2.4%	.	.	-0.6
55	CC(C)c1ccccc1NC(=O)Cn1c(-c2ccccc2Cl)nc2ccccc21
    -17%	3%[15.4 µM]	1.9%	0.2%	-6.1	-15%	-1.7
56	O=C(c1ncn(Cc2ccccc2)c1C(=O)N1CCN(c2ccccc2)CC1)N1CCN(c2ccccc2)CC1
    -12%	.	-0.5%	1.5%	.	.	1.5
57	CC(C)C[C@H](NC(=O)c1nc[nH]c1C(=O)N(C)Cc1ccccc1)C(=O)OCc1ccccc1
    -22%	?	5.8%	1.4%	1.5	25%	-0.4
58	O=C(CN(Cc1ccccc1)C(=O)CCl)c1cccc(Br)c1
    -19%	?	-1.1%	1.6%	.	.	-1.4
59	CN(C)c1ccc(NC(=O)CCCc2ccccc2)cc1
    -19%	11%	-1.0%	0.3%	6.7	22µM*	0.1
